Six1-Eya2 inh: qHTS Assay for Inhibitors of the Six1/Eya2 Interaction | Homeobox protein SIX1 (Homo sapiens) + Protein phosphatase EYA2 (Homo sapiens), … | AlphaScreen GST-Six1/His-Eya2 binding, biochemical; active compounds read low; control for the full effect not named in the record | activity change, % (no concentration beside the values) | actives 0.56% (n = 360,000) | AID 651725, 2012; in the data active = activity change below about -65%; inconclusive = about -30% to -65%; inactive = above about -30%; further: on the % scale 0 is the no-effect control and ±100 the full control effect
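GST-Six1 + His-Eya2 (5X stock: 250/500 nM); Tris pH 8.0, 300 mM NaCl, 0.05% BSA, 0.02% Tween 20; GSH donor/Ni acceptor beads; 1 h 37 °C dark; AlphaScreen readout.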
PINK1 expr mod: A Quantitative High throughput Screen to Identify Chemical Modulators of PINK1 Expression. Potency, µM (top dose mostly 76.6 µM), for the others: top-dose activation (PINK1 increase), usual class: activators. PINK1 immunofluorescence, high-content cytometry, 24 h. actives 0.2% (n = 410,000); active = well fitted activation curve with a large enough effect; inconclusive = small, poorly fitted or top-dose-only effect; inactive = flat fitted curve, though single readings scatter; cell line not stated here;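 further: potency means the concentration at half of the fitted maximal effect; % of control where 0% means no effect; nearly all actives have a fitted effect of over 65% in size; a mitochondrial uncoupler was the plate control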
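Measures PINK1 amount and localization on or inside mitochondria by immunofluorescence. Stable cells get compounds at 5 concentrations for 24 hours before fixation and staining; CCCP controls included.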
D2 potentiator: Beta-Arrestin HTS for Positive Allosteric Modulators of the Human D2 Dopamine Receptor: Potentiators; AID 624464, 2012; DiscoveRx D2 beta-arrestin cells, luminescence, 90 min; 100% = 57 uM dopamine signal; D(2) dopamine receptor (Homo sapiens), P14416; potentiation, % (test concentration not listed); actives 0.23% (n = 360,000); active = potentiation of 50% or more; inconclusive = 30% to 50%; inactive = 30% or less;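 further: compound concentration not given in the record; tested on top of an EC20 dose of dopamine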
Target sequence (P14416 whole entry, looked up): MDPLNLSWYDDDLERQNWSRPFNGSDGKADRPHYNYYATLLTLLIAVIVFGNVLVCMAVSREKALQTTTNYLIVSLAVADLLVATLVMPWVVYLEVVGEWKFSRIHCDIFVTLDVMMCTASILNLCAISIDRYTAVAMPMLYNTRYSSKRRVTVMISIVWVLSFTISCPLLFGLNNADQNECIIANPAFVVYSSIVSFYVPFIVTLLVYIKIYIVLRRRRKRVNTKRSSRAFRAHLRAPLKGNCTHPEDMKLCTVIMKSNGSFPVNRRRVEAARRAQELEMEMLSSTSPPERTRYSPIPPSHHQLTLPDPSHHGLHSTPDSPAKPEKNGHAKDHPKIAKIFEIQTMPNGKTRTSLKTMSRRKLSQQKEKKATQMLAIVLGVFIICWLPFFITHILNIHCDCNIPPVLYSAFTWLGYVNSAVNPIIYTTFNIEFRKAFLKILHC
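PathHunter beta-arrestin assay in DiscoveRx D2 cells. Compounds were added with an EC20 of dopamine (50 nM final) for 90 min at 37 deg C. Luminescence was read 1 h after detection reagent, with 57 uM dopamine as the EC100 control.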
TRPML1 agonist: qHTS for Agonists of the Human Mucolipin Transient Receptor Potential 1 (TRPML1) | actives 0.12% (n = 410,000) | Mucolipin-1 (Homo sapiens), Q9GZU1 | activation, % (no concentration beside the values) | TRPML1-expressing cells, Ca2+ dye fluorescence, FDSS; host cell line not named in the record; reference of the full effect not given here; in the data active = activation above about 50%; inconclusive = about 30% to 50%; inactive = below about 30%; further: 0% is about no effect; the text of the record puts the active cut at 80%
Target sequence (Q9GZU1 whole entry, looked up): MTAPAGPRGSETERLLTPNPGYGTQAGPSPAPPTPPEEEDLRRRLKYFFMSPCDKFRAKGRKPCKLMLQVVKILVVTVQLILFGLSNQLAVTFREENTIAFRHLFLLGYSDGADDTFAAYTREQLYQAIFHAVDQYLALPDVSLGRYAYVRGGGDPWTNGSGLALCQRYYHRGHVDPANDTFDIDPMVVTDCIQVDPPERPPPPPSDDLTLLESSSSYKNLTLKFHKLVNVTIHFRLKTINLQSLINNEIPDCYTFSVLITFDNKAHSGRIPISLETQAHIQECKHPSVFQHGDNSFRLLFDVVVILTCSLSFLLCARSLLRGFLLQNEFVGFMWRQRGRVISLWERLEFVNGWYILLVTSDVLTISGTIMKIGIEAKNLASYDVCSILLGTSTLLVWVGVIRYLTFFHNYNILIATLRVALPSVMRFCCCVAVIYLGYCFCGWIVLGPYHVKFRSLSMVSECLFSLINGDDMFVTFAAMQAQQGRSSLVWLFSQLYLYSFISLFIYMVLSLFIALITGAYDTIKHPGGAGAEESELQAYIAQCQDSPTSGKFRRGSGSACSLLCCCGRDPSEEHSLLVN
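Calcium fluorescence on an FDSS kinetic reader gave the read-out. Tet-induced TRPML1-DL cells were plated overnight, dye-loaded (Ca8 with quencher, 45-90 min, room temperature, dark), then read 110 s after compound addition, and again 110 s after 4uM final 54-4 (EC80).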
D2 agonist: Beta-Arrestin HTS for Positive Allosteric Modulators of the Human D2 Dopamine Receptor: Agonists. D(2) dopamine receptor (Homo sapiens), P14416. DiscoveRx PathHunter D2 beta-arrestin, luminescence, 90 min; 100% = 57 uM dopamine signal. activation, % (concentration not given with the values). actives 0.084% (n = 360,000); in the data active = activation above about 40%; inconclusive = about 15% to 40%; inactive = below about 15%; further: compound concentration not given in the record; the text of the record calls up to 30% inactive
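Agonist mode: compounds alone added to overnight-plated D2 PathHunter cells for 90 min at 37 C, with 57 uM final dopamine (EC100) defining full response. Beta-arrestin recruitment detected by chemiluminescent reagent, read after 1 h at ambient temperature.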
TRPML1 blocker: qHTS for Inhibitors of the Human Mucolipin Transient Receptor Potential 1 (TRPML1) | actives 0.02% (n = 390,000) | Mucolipin-1 (Homo sapiens), Q9GZU1 | TRPML1-inducible cells, Ca2+ dye fluorescence, FDSS; active compounds read low; inhibition of EC80 agonist-evoked calcium signal | activity change, negative = inhibition, % (concentration not given with the values); in the data active means activity change below about -50%; inconclusive means about -30% to -50%; inactive means above about -30%;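 further: stimulus is agonist 54-4 at its EC80 concentration; on the % scale 0 is the no-effect control and ±100 the full control effect; the text of the record puts the active cut at -80%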
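Tet-induced TRPML1-DL cells loaded with Ca8 no-wash calcium dye were read kinetically on FDSS. Compound addition was followed by EC80 agonist 54-4 (4 uM final); inhibition was read over 110 s.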
* marks the source's active call; other numbers are inactive results; ? = inconclusive; · = no result given; & = joins results of further samples; [ ] = remark or other dose.

SMILES | Six1-Eya2 inh | PINK1 expr mod | D2 potentiator | TRPML1 agonist | D2 agonist | TRPML1 blocker
COc1ccccc1C1C(C(=O)c2ccc(C)o2)=C(O)C(=O)N1c1cc(C)on1 (stereo not given) | 2.6 | -1.3% | 2.5 | 1.3 | 4.6 | 5.7
O=C(NCc1cccnc1)c1cc(-c2ccco2)on1 | 0.4 | -3.3%[38.3 µM] | -13.1 | 1.2 | -0.8 | -15.7
CC(=O)OC1CCC2(C)C(COc3ccc4ccc(=O)oc4c3)C(C)(O)CCC2C1(C)C (stereo not given) | -6.1 | 4.8% | -4.0 | 0.4 | -2.4 | 27.3
CCC(c1nnnn1CCOC)N1CCN(Cc2ccccc2OC)CC1 (stereo not given) | 1.3 | -4.7% | -14.1 | ? | -3.3 | -11.1
CC(C)(C)C(=O)NC1CC2CCCC(C1)N2C(=O)Nc1ccccc1 (stereo not given) | 0.3 | -0.4% | -1.8 | 0.1 | -1.0 | -1.7
COc1ccc(CNC(=O)c2ccccc2SCC(=O)N2CCCC2)cc1OC | 8.5 | 1.4% | 1.6 | 1.6 | -2.4 | 1.2
Clc1ccccn1 | 1.5 | 0.7% | -6.6 | 0.4 | -1.1 | -7.6
Cc1cc(C)nc(-n2nc(C)cc2NC(=O)CN2CCCC(C)C2)n1 (stereo not given) | -1.4 | -3.3%[38.3 µM] | -18.1 | -0.6 | -2.3 | -4.1
O=C(OCC(=O)N1CCOCC1)c1ccc2[nH]c3c(c2c1)CCCC3 | -1.8 | 1.1% | 2.7 | 1.1 | 0.9 | 7.2
COc1ccc(NS(=O)(=O)c2ccc3oc(=O)c4[nH]c(=O)c(=O)n(C)c4c3c2)cc1 | -11.1 | 1.4% | -7.8 | 0.4 | -4.2 | -13.8
Cc1ccc(NC(=O)/C(C#N)=C/c2cc(C)n(-c3ccc(F)cc3)c2C)cc1C | · | -1.6% | · | -0.8 | · | 41.4
CC(C)CC(=O)NC(=S)N(Cc1ccccc1)Cc1ccccc1 | 3.1 | 8.7% | -11.1 | -1.0 | -0.6 | 0.1
CSCCC(=O)N1CCCC(N(C)CCc2ccccc2)C1 (stereo not given) | 7.0 | 1.4% | -72.4 | · | -4.1 | ·
COc1ccc(/C=C(\NC(=O)c2ccc(Cl)cc2)C(=O)NCCCN2CCOCC2)cc1OC | 7.5 | 0.3% | -3.2 | 0.7 | -0.6 | -6.2
Cn1c(=O)c2cc(S(=O)(=O)NC(C(=O)NCc3ccccn3)c3ccccc3)ccc2n(C)c1=O (stereo not given) | -7.6 | -0.8% | -4.7 | -0.8 | 4.6 | -16.3
COc1ccc(CN2C(=O)CN(C3CCCCCC3)C(=O)C2c2ccc(OC)c(OC)c2)cc1 (stereo not given) | 0.7 | -1.0%[38.3 µM] | -7.3 | -0.1 | 1.8 | -1.2
O=C(O)c1ccccc1C(=O)NNc1ccc(F)cc1F | 5.4 | -0.1% | -6.6 | -0.1 | 4.2 | -2.2
Cc1ccccc1C(=O)OC1OC(=O)C(Cl)=C1N1CCOCC1 (stereo not given) | -15.4 | 1.1% | -9.0 | -0.6 | -1.1 | 3.7
COc1ccccc1NC(=O)Cn1cnc2sc(C(=O)Nc3cc(OC)c(OC)c(OC)c3)c(C)c2c1=O | -0.8 | 2.5% | -2.6 | 1.2 | -0.4 | 20.0
Cc1ccc(C)c(OCC(=O)Nc2ccc(S(=O)(=O)Nc3ccccn3)cc2)c1 | -13.9 | -1.0% | -4.5 | 1.4 | -0.5 | -27.7
Cc1cccc(C(=O)NCCc2ccccc2)c1 | 4.5 | 1.8% | -9.1 | -1.8 | -3.3 | -8.9
O=C(c1ccc(Cl)c(Cl)c1)N(Cc1ccco1)c1ccc(O)cc1 | -3.8 | 1.0% | -26.9 | 0.0 | -1.1 | 7.6
CCCNS(=O)(=O)c1ccc(OC)c(Cl)c1Cl | 5.8 | 8.6%[38.3 µM] | 1.3 | 0.5 | 0.3 | -2.0
Cc1nn(C)cc1CNC(=O)c1ccccc1Br | 2.1 | 7.7%[38.3 µM] | -3.2 | 0.3 | -2.2 | 7.4
Cc1ccc2c(c1)CCCN2C(=O)c1cc2ccccc2oc1=O | -1.7 | -1.6%[38.3 µM] | -18.5 | 1.2 | -2.7 | -26.9

(cont.)
SMILES | Six1-Eya2 inh | PINK1 expr mod | D2 potentiator | TRPML1 agonist | D2 agonist | TRPML1 blocker
COc1cccc(NC(=O)CN(C)C(=O)c2ccc3c(c2)CC(c2ccccc2)OC3=O)c1 (stereo not given) | 0.6 | 7.0% | -9.4 | 1.7 | 1.0 | 8.5
Cc1c(S(=O)(=O)Nc2cccc3ccccc23)c(=O)n(C)c(=O)n1C | 8.3 | 6.2% | -17.5 | 0.6 | -1.9 | -11.3
CCOc1ccc2nc(NC(=O)CS(=O)(=O)c3ccc(Cl)cc3)sc2c1 | · | -2.1% | · | 0.3 | · | 9.9
COc1cccc(N2[C@@H](CC(C)=O)c3cc(C(F)(F)F)ccc3S2(=O)=O)c1 | 0.0 | 3.5% | -0.6 | 0.8&-0.1 | -2.1 | 48.7
COCCn1c(C)cc(C2=NNC(=Nc3ccccc3F)SC2)c1C | -3.0 | ? | 10.2 | 0.0 | -1.3 | 31.2
Cc1cc(C)cc(NC(=O)CSc2nc3sc4c(c3c(=O)[nH]2)CCCC4)c1 | · | -0.5% | · | -0.7 | · | -8.4
Cc1ccc(Cn2c(CNC(=O)CCc3ccccc3)nc3cccnc32)cc1 | · | 7.0% | · | 0.2 | · | -6.6
Cc1ccc2sc(NNC(=O)c3cc(=O)c4ccccc4o3)nc2c1C | -14.2 | 3.5% | -10.3 | -0.8 | -0.8 | -2.3
CC1CCN(C(=S)c2ccccc2O)CC1 | -0.6 | 0.9% | -6.2 | -0.3 | -1.0 | -4.6
CC1(C(=O)NS(=O)(=O)c2cccs2)CCN1C(=O)c1cccc(F)c1 (stereo not given) | 0.1 | -0.6% | -0.2 | 4.1 | -2.3 | 34.5
NC(=O)Nc1ccc(Nc2ccccc2)cc1 | -6.6 | 0.2% | -2.9 | -0.8 | 0.8 | -18.4
N#Cc1c(C(F)(F)F)cc(-c2cccs2)nc1SCC(=O)Nc1ccc(F)cc1 | · | 5.5% | · | 2.8 | · | -2.7
Oc1ccccc1C1=Nc2nc3ccccc3n2C(c2ccccc2)C1 (stereo not given) | -15.6 | 4.0% | -4.1 | 0.2 | -4.8 | 25.1
O=C1CCC/C(=N/NC(=O)c2ccc(CN3c4cccc5cccc(c45)S3(=O)=O)cc2)C1 | -2.6 | 5.1% | 4.0 | 1.1 | 1.1 | 16.3
COc1ccc(NC(=O)CSc2nc(-c3ccc(C)cc3)cc(C(F)(F)F)c2C#N)cc1 | 2.7 | ? | -4.2 | 1.1 | 0.0 | 14.3
COC(=O)c1cc(NS(=O)(=O)c2ccc(N3CCOCC3)c([N+](=O)[O-])c2)cc(C(=O)OC)c1 | -2.9 | -1.4% | -15.9 | -0.2 | -0.2 | 11.0
Cc1ccc(NC(=O)N(Cc2nc3ccccc3c(=O)[nH]2)Cc2cccs2)cc1 | 7.0 | 9.5% | -21.1 | 0.3 | -1.8 | -5.0
COC(=O)c1ccc(NC(=O)c2ccc(F)cc2)o1 | -2.5 | 4.8% | -2.1 | -0.5 | -5.3 | 24.2
Cc1cc(C)c2sc(N3CCN(C(=O)C4CC4)CC3)nc2c1 | · | 2.2% | · | 0.1 | · | 16.7
Cc1ccc(CN2CCN(C(=O)C3CCC3)CC2)cc1 | 1.4 | 1.5%[38.3 µM] | -10.5 | -0.3 | 2.4 | 5.1
O=C(CS(=O)(=O)c1nc(-c2ccc(Cl)cc2)cn1-c1ccccc1)Nc1ccc(F)cc1F | · | 8.2% | · | -0.5 | · | 3.7
CCOCCCNC(=O)CCCC1=NS(=O)(=O)c2ccccc2N1 | -2.6 | 0.2% | -3.3 | 0.3 | -3.5 | 2.9
CCCCCC(=O)Nc1cc(S(=O)(=O)N2CCOCC2)ccc1N1CCN(C)CC1 | 4.8 | 3.1% | 4.5 | -0.2 | -3.1 | 11.9
Cc1ccc(CNC(=O)C2CCN(S(=O)(=O)c3ccc4nc5c(c(C(=O)O)c4c3)CC(C)CC5)CC2)cc1 (stereo not given) | -65.1* | -0.2%&0.8% | -2.0 | 3.8&-0.1 | -2.5 | 16.1&10.8
CCOC(=O)Cc1c(C)nc2c(-c3ccccc3)c(C)nn2c1C | 18.6 | -0.3% | -4.4 | 1.5 | 0.8 | 7.4

(more compounds)
SMILES | Six1-Eya2 inh | PINK1 expr mod | D2 potentiator | TRPML1 agonist | D2 agonist | TRPML1 blocker
Cc1ccc(NC(=S)NNS(=O)(=O)c2ccc3ccccc3c2)cc1Cl | 8.3 | 1.0% | -6.5 | 0.9 | -1.8 | 39.1
CC(=O)Nc1ccc(NC(=O)c2cc(-c3cc(C)cc(C)c3O)n[nH]2)cc1 | -5.4 | 3.8% | -7.6 | 0.8 | -2.4 | 20.5
O=C(/C=C/c1ccc(F)cc1)c1ccccc1Br | 2.5 | -2.3% | 0.1 | 5.3 | 0.3 | 45.6
O=C(Nc1ccc(Oc2ccccc2)cc1)c1csc([C@@H]2O[C@H](CO)[C@@H](O)[C@H]2O)n1 | -3.4 | 1.4% | 6.8 | -0.4 | ? | ·
CCc1ccc(OCC(=O)NC2CC(C)(C)NC(C)(C)C2)cc1 | 5.1 | 1.8% | -0.4 | -0.1 | -1.1 | -1.3
CC(C)(C)C(=O)Cn1nnc(-c2ccc(C(F)(F)F)cc2)n1 | 1.4 | 0.9% | -5.1 | 0.8 | -0.8 | ?
CCn1ncc(C2=NOC(C(=O)Nc3c(C)nn(Cc4ccc(F)cc4)c3C)C2)c1C (stereo not given) | 3.5 | -0.6% | -5.5 | -0.2 | -4.6 | -9.9
Cc1cccc(C2CC(=O)Oc3c2c(=O)n(C)c2ccccc32)c1 (stereo not given) | · | 1.6% | · | 1.2 | · | 43.4
COc1ccc(N2CC(O)=C(c3nc(-c4ccc(F)cc4)cs3)C2=N)cc1OC | 5.5 | 2.0% | -4.3 | 1.2 | -1.6 | -4.7
Cc1ccc(NC(=O)C2CCCN2S(=O)(=O)c2ccc3c(c2)CCCC(=O)N3)cc1Cl (stereo not given) | · | 0.6% | · | 0.6 | · | -4.6

Three successive entries from above, for reference:
SMILES | Six1-Eya2 inh | PINK1 expr mod | D2 potentiator | TRPML1 agonist | D2 agonist | TRPML1 blocker
O=C(Nc1ccc(Oc2ccccc2)cc1)c1csc([C@@H]2O[C@H](CO)[C@@H](O)[C@H]2O)n1 | -3.4 | 1.4% | 6.8 | -0.4 | ? | ·
CCc1ccc(OCC(=O)NC2CC(C)(C)NC(C)(C)C2)cc1 | 5.1 | 1.8% | -0.4 | -0.1 | -1.1 | -1.3
CC(C)(C)C(=O)Cn1nnc(-c2ccc(C(F)(F)F)cc2)n1 | 1.4 | 0.9% | -5.1 | 0.8 | -0.8 | ?

Compound activity as filed in PubChem.
